From PubChem
KCNQ2 enhance: KCNQ2 (rat) channel potentiation; CHO-K1 KCNQ2, FluxOR thallium flux fluorescence; hits give high values; 310,000 compounds, 0.54% hits; B-score at 10 µM; AID 2239;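 active means fluorescence ratio B-score at least 3 SD of library B-scores, with initial fluorescence B-score within 3 SD, cut at about 5.3 in these data; same plate scores as AID 2156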;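 further: B-score of peak minus minimum over baseline fluorescence ratio after K+ and Tl+ stimulus; positive B-score means potentiation of KCNQ2 with more thallium influx and brighter signal; only the inactives scoring about 0 or higher are listed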
Target sequence (O88943 whole entry, looked up): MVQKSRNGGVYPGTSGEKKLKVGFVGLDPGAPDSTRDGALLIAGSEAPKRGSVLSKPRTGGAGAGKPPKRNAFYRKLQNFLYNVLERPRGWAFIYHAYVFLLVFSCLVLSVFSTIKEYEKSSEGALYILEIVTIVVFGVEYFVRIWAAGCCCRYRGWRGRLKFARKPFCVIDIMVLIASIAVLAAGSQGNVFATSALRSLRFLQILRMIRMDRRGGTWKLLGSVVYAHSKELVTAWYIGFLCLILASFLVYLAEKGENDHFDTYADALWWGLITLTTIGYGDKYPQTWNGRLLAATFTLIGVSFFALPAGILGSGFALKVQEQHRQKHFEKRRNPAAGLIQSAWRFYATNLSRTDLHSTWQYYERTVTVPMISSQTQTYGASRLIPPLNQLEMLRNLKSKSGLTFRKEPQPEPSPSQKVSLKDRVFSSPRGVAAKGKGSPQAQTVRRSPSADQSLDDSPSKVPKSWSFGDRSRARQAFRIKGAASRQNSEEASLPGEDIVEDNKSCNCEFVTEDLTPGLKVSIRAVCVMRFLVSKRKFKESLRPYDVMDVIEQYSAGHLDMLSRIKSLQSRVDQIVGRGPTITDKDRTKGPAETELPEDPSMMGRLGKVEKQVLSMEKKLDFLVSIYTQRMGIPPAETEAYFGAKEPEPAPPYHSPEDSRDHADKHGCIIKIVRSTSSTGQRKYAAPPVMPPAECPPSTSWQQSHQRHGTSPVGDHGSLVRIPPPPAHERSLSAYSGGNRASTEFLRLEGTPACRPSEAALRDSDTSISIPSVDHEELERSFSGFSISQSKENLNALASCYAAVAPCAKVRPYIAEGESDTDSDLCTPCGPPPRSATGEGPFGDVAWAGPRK
KCNQ2 enhance baseline: second read-out of KCNQ2 enhance, no call of its own (marks repeat the call); B-score; compound at 10 µM; measured here: initial fluorescence intensity artifact check;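 brightness before thallium and not channel activity; 0 = typical well and far values either way flag optical interference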
* marks the source's active call; other numbers are inactive results; x = not tested or not shown. A portion of the library; count on the stated rates, not on these rows.

Below each SMILES – KCNQ2 enhance, KCNQ2 enhance baseline
> CCOc1cccc2sc(N(CCCN(C)C)C(=O)Cc3ccccc3)nc12
    1.6, 0.62
> CCOc1ccc(C(CC(=O)O)NC(=O)C23CC4CC(CC(C4)C2)C3)cc1 (stereo unspecified)
    0.48, -1.4
> CO/N=C(\Cn1ncc(N2CCOCC2)c(Br)c1=O)c1ccc(Cl)cc1
    0.85, 0.57
> Cc1cc2c(c(=O)n1CC1CCCO1)C(c1ccco1)C(C#N)=C(N)O2 (stereo unspecified)
    1.3, -2.2
> CC(=O)/C=C\c1cn(-c2ncc(C(F)(F)F)cc2Cl)c2ccccc12
    0.02, -0.5
> Cn1c2c(c(=O)n(C)c1=O)C(C(F)(F)F)(C(F)(F)F)N=C(c1ccc(Cl)cc1)N2
    0.78, 0.76
> COc1ccccc1CNC(=O)C1CCN(S(=O)(=O)c2ccc3c(c2)C(C)(C)C(=O)N3C)CC1
    0.12, -1.9
> Cc1cc(F)ccc1S(=O)(=O)N1CCCOC1CNC(=O)C(=O)NCCN1CCOCC1 (stereo unspecified)
    0.27, 1.5
> CCOc1ccc2cc(C(=O)NCc3ccccc3)c(=N)oc2c1
    0.51, -0.25
> Cc1ccc(-c2cc(-c3ccccc3)no2)c(O)c1
    2.6, -0.53
> COc1cc(OC)cc(C(=O)NC2CCN(CCCOc3ccccc3)CC2)c1
    0.39, 0.15
> COc1ccccc1C(=O)N/C(=C\c1cn(S(=O)(=O)N(C)C)c2ccccc12)C(=O)N1CCOCC1
    1.2, 0.04
> CCOC(=O)C1=C(CN2CCC(C)CC2)NC(=O)NC1c1ccc(Cl)cc1 (stereo unspecified)
    1.6, -0.02
> O=C(NC1CCCCC1)C(c1ccncc1)N(C(=O)c1csnn1)c1ccccc1F (stereo unspecified)
    0.32, 0.56
> COc1ccc(C(=O)N2CCCC(Nc3ccc(F)cc3)C2)cc1F (stereo unspecified)
    0.87, 0.08
> CCCNC(=O)C(=O)N/N=C/c1ccc(OCc2ccccc2)cc1
    0.3, -0.55
> COc1ccccc1NC(=S)NCCc1c[nH]c2ccccc12
    0.21, 0.52
> O=C(Nc1ccc(Cc2ccncc2)cc1)c1cccc([N+](=O)[O-])c1
    1.5, 2.9
> Cc1ccc2c(CSc3nncn3C)cc(=O)oc2c1C
    3, -0.61
> CCOc1ccc(NS(=O)(=O)c2ccc(NC(=O)c3cccnc3)c(OC)c2)cc1
    0.23, -0.07
> COC(=O)c1ccc(-c2n[nH]c(=O)c3ccccc23)cc1
    0.46, -0.6
> COC(=O)c1sc(S(=O)(=O)NC(C)C(=O)O)c(C(=O)OC)c1C (stereo unspecified)
    0.01, 0.99
> O=C(CN(c1ccc2c(c1)OCCO2)S(=O)(=O)c1ccccc1)NCC1CCCO1 (stereo unspecified)
    0.01, 0.43
> CCOCCCNC(=O)c1ccc(N2CCOCC2)c(NS(=O)(=O)c2ccc(OC)cc2)c1
    0.07, -2.4
> CCCN1CCN(CCCNC(=O)CCCn2nc(C)c3sc4ccccc4c3c2=O)CC1
    1.7, 1.8
> COc1ccc(-c2csc(Nc3cc(C)ccn3)n2)cc1C
    0.81, -0.14
> O=C(NNC(=O)c1ccc2c(=O)n3c(nc2c1)CCC3)c1cccc(Cl)c1
    1.4, -1.8
> COC(=O)c1ccc(Cn2cnc3c(cnn3-c3ccc(C)c(C)c3)c2=O)o1
    1.5, -0.54
> O=C(Cc1cccs1)Nc1ccccc1-c1nc2ccccc2[nH]1
    0.51, -0.68
> COCCNC(=O)C(c1ccc(OC)cc1)N(CCOC)C(=O)CCC(=O)Nc1nccs1 (stereo unspecified)
    0.69, -0.21

Continued; it opens with the 3 that closed the last part.
Below each SMILES – KCNQ2 enhance, KCNQ2 enhance baseline
> COC(=O)c1ccc(Cn2cnc3c(cnn3-c3ccc(C)c(C)c3)c2=O)o1
    1.5, -0.54
> O=C(Cc1cccs1)Nc1ccccc1-c1nc2ccccc2[nH]1
    0.51, -0.68
> COCCNC(=O)C(c1ccc(OC)cc1)N(CCOC)C(=O)CCC(=O)Nc1nccs1 (stereo unspecified)
    0.69, -0.21
> Nc1cccc(-c2nc3ccccc3[nH]2)c1
    0.62, 0.85
> CCCCNC(=S)Nc1ccc(-c2nc3ccc(C)cc3s2)cc1
    0.77, -1.4
> COc1ccc(Cl)cc1S(=O)(=O)Oc1ccc(NC(C)=O)cc1
    1.6, -0.12
> CC1CCc2sc(C(=O)OC(C)C(=O)Nc3ncc(Cl)cc3Cl)cc2C1 (stereo unspecified)
    1.6, 0.02
> Cc1cc(C)c(OCCCNC2CCCC2)c(Br)c1
    1.4, -1.5
> CCCNC(=O)COc1nc2ccccc2nc1N1CCOCC1
    0.29, 1.6
> CSc1ncccc1C(=O)OCC(=O)c1ccc(S(=O)(=O)N2CCCCC2)cc1
    2.5, -0.4
> CCOC(=O)C1CCCN(C(=O)c2ccc(S(=O)(=O)NCc3ccco3)cc2)C1 (stereo unspecified)
    1, -1.3
> CN(C)c1ccc(NC(=O)c2ccc(COc3cccc(Cl)c3)o2)cc1
    0.16, 1.4
> O=C(c1ccc([N+](=O)[O-])cc1[N+](=O)[O-])n1cnc2ccccc21
    1, 2.1
> CCOCCCN1CC(=O)N2[C@@H](Cc3c([nH]c4ccccc34)C2(C)C)C1=O
    1.9, 0.33
> Cc1nn(-c2ccccn2)c2c1C(c1ccncc1)C1=C(CC(C)(C)CC1=O)N2 (stereo unspecified)
    0.1, -1.4
> O=c1[nH]c2ccc(S(=O)(=O)N3CCCCC3)cc2[nH]1
    1.2, -1.6
> O=C1NC(c2ccccc2)=C(c2nc3ccccc3s2)C(c2ccc(O)cc2)N1 (stereo unspecified)
    15*, -1.6*
> CN(CC(=O)Nc1ccc(N2CCOCC2)cc1)C(=O)CSc1ccc(F)cc1
    0.04, -1

Some of these compounds in order of length of the SMILES, low to high.
Below each SMILES – KCNQ2 enhance, KCNQ2 enhance baseline
> O=c1[nH]c2ccc(S(=O)(=O)N3CCCCC3)cc2[nH]1
    1.2, -1.6
> CC1CCc2sc(C(=O)OC(C)C(=O)Nc3ncc(Cl)cc3Cl)cc2C1 (stereo unspecified)
    1.6, 0.02
> CSc1ncccc1C(=O)OCC(=O)c1ccc(S(=O)(=O)N2CCCCC2)cc1
    2.5, -0.4

Next part:
Below each SMILES – KCNQ2 enhance, KCNQ2 enhance baseline
> COc1cc(OC)c2cc(C(=O)N[C@@H](Cc3ccccc3)C(=O)O)n(C)c2c1
    0.77, -1.1
> CCN1CCN(CCC(=O)Nc2ccc(Br)c(C)c2)CC1
    0.43, 1.4
> CC(=O)Nc1ccccc1C(=O)C(=O)Nc1cccc(C(=O)NCc2ccc(C)cc2)c1
    1.5, 0
> CC/C(=N\NC(=O)COc1ccc(Br)cc1)c1ccc(OC)c(OC)c1
    0.03, 0.99
> CC(=O)c1cnc2c(-c3ccccc3)cnn2c1C
    0.05, -0.07
> O=C(CCn1c(=O)[nH]c2ccsc2c1=O)N1CCc2ccccc2C1
    0.16, -0.49
> N=C(N)SCc1cccc2ccccc12
    0.41, 1.2
> Cc1ccc(-c2cc(C(F)(F)F)c(C#N)c(=O)[nH]2)cc1
    5.2, -2
> CCOc1ccccc1Nc1nc(-c2cccnc2)cs1
    0.61, 0.56
> Cc1ccc(Nc2nc(N)nc(CSc3nc(C)cc(C)n3)n2)cc1
    3.6, -1.9
> Cc1ccc(NS(=O)(=O)c2ccc(C(=O)NCCCN3CCCC3=O)cc2)cc1
    0.16, 1.4
> CC(=O)c1cccc(NC(=O)N2CCC(NC(=O)C3CCCCC3)CC2)c1
    0.17, -0.44
> COc1ccc(C(=O)CN2C(=O)c3ccccc3C2=O)c(OC)c1
    0.1, -1.8
> CC(C)(C)NC(=O)COC(=O)c1snc(C(=O)NC2CCCCC2)c1N
    0.66, 3.1
> Cn1ncc2c(Nc3ccc([N+](=O)[O-])cc3)nc(Cl)nc21
    0.03, 0.36

Another view of part of the listing above:
COCCNC(=O)C(c1ccc(OC)cc1)N(CCOC)C(=O)CCC(=O)Nc1nccs1 (stereo unspecified)
- KCNQ2 enhance = 0.69
- KCNQ2 enhance baseline = -0.21

CC(=O)c1cnc2c(-c3ccccc3)cnn2c1C
- KCNQ2 enhance = 0.05
- KCNQ2 enhance baseline = -0.07

CCOc1ccccc1Nc1nc(-c2cccnc2)cs1
- KCNQ2 enhance = 0.61
- KCNQ2 enhance baseline = 0.56

COc1ccc(Cl)cc1S(=O)(=O)Oc1ccc(NC(C)=O)cc1
- KCNQ2 enhance = 1.6
- KCNQ2 enhance baseline = -0.12

Further structures follow:
Below each SMILES – KCNQ2 enhance, KCNQ2 enhance baseline
> Cc1nc2c(C)cccn2c(=O)c1NC(=O)c1ccc(Br)o1
    0.51, 0.26
> O=C(COc1ccc2c3c(c(=O)oc2c1)CCCC3)NCC(O)c1ccccc1 (stereo unspecified)
    0.99, 0.59
> CCCCN(C(=O)c1ccc(Cl)cc1)C1CC2CCC(C1)N2C (stereo unspecified)
    0.38, -0.74
> CN(C1CCCCC1)S(=O)(=O)c1cccc2nsnc12
    0.13, -0.67
> NS(=O)(=O)c1ccc(-n2nncc2C23CC4CC(CC(C4)C2)C3)cc1
    0.38, -2.1
> O=C(CN1CCN(C(=O)N2CCCCC2)CC1)Nc1ccc(F)cc1
    0.37, -0.12
> CCN1CCN(c2ccc(S(=O)(=O)N3CCOCC3)cc2NC(=O)CCC(C)C)CC1
    1.2, -0.85
> O=C(CSCC(=O)OCC(=O)c1ccc(Br)cc1)Nc1ccc(Br)cc1
    0.92, 0.01
> Cc1ccccc1OCC(O)CN1CCN(C)CC1 (stereo unspecified)
    1.6, 0.07
> NC(=O)CSc1nnc(-c2ccc(S(=O)(=O)N3CCOCC3)cc2)n1Cc1ccccc1
    1.7, 0.43
> O=[N+]([O-])c1ccccc1OCCN1CCOCC1
    0.79, -0.4
> CC(=O)Cn1nnc2sc(-c3ccccc3)cc2c1=O
    0.75, 0.81
> Cc1cc(/C=N/N2CCN(C)CC2)c(C)n1-c1ccccc1F
    2.4, -0.89
> CCCn1c(N)c(N(CCOC)C(=O)c2cccc(F)c2)c(=O)[nH]c1=O
    0.43, 1.6
> CSc1nnc(C)c(=O)n1COC(=O)c1cc(Cl)ccc1[N+](=O)[O-]
    0.91, 0.44

Additional compounds follow:
compound | KCNQ2 enhance | KCNQ2 enhance baseline
CCNC(=O)[C@@H]1CCCN1C(=O)[C@H](CCCN=C(N)N)NC(=O)[C@H](CC(C)C)NC(=O)[C@@H](CC(C)C)NC(=O)[C@H](Cc1ccc(O)cc1)NC(=O)[C@H](CO)NC(=O)[C@H](Cc1c[nH]c2ccccc12)NC(=O)[C@H](Cc1cnc[nH]1)NC(=O)[C@@H]1CCC(=O)N1 | 0.2 | 0.43
COc1cc(CNCCO)ccc1OCCc1ccccc1 | 0.3 | 0.88
O=C(c1cnc2n(c1=O)CCS2)N(c1ccccc1)C1CCCCC1 | 0.23 | -0.95
CCC/C(O)=C1\C(=O)CCCC1=NC(C)C(=O)O (stereo unspecified) | 0.85 | 0.07
NC(=O)CC(c1ccccc1)c1ccco1 (stereo unspecified) | 1.4 | -0.18
COc1ccc2cc(C3CC(c4cccs4)=NN3C(C)=O)c(Cl)nc2c1 (stereo unspecified) | 0.8 | -1.5
Cc1ccc(-c2nnc(Nc3cccc(O)c3)c3ccccc23)cc1S(=O)(=O)NCCO | 1.5 | -1.9
COc1cc(C2C3=C(CC(C)(C)CC3=O)OC(N)=C2[N+](=O)[O-])ccc1O (stereo unspecified) | 2.1 | 0.01
COC(=O)c1cc(Cl)c(NC(=O)/C=C/c2ccc(Cl)cc2)cc1OC | 0.9 | -0.24
CC(=O)Nc1sc2c(c1CN1CCN(C)CC1)CCCC2 | 0.14 | 1.5
COc1ccc(-c2noc(CCCC(=O)O)n2)cc1 | 1 | -0.88
N=C1/C(=C/c2cccn2-c2ccc([N+](=O)[O-])cc2)C(=O)N=C2SC=CN12 | 0.08 | -0.18
CC(=O)SC(C[N+](=O)[O-])c1cn(C(C)=O)c2ccccc12 (stereo unspecified) | -5.6 | x
Clc1ncccc1-c1nnn(-c2ccccc2)n1 | 1.5 | -0.54
CCC(=O)Nc1ccc2c(c1)nc1n2CCN(CCOC)C1 | 1.6 | -0.01
Cc1ccc(Cn2ccnc2SCC(=O)NC2CCCC2)cc1 | 1.1 | 0.37
CN1C(C(=O)NCc2ccc(OC(F)(F)F)cc2)CC2Cn3c(nc4cc(Cl)c(Cl)cc43)C21 (stereo unspecified) | 0.14 | 1.4
COc1ccc(C(=O)Oc2cc(C)[nH]c(=O)c2[N+](=O)[O-])c(OC)c1 | 0.5 | 1.2
Cc1ccc(N2CC(C(=O)Nc3ncc([N+](=O)[O-])s3)CC2=O)cc1 (stereo unspecified) | 0.02 | 0.42
Cn1cnnc1SCC(=O)NN(c1ccccc1)c1ccccc1 | 3.6 | 0.95
O=C(O)c1cccc(Oc2cccc(Cl)n2)c1 | 0.15 | -0.39
CCN(CC)CCCn1c(=S)[nH]c2cc(Cl)ccc2c1=O | 1.7 | 1.7
Cc1cc(NC(=O)CCCn2nc([N+](=O)[O-])c(Cl)c2C)no1 | 0.18 | -0.22
N/C(=N\c1nc(CSc2ccc(Cl)cc2)cc(=O)[nH]1)Nc1ccccc1C(F)(F)F | 0.09 | 0
CCc1ccc(-c2csc3ncn(CC(=O)NCc4ccco4)c(=O)c23)cc1 | 0.27 | 0.08
O=C(O)c1ccccc1C(=O)Nn1cnnc1 | 0.48 | -0.34
COc1ccc(Nc2nccc(OC)c2C#N)cc1 | 0.08 | -0.35
COc1cccc(C(=O)COc2ccccc2N2C(=O)C3C4C=CC(C4)C3C2=O)c1 (stereo unspecified) | 0.71 | -0.21
O=C(CCc1nnc(-c2ccccc2)o1)NCC1CCN(C2CCCC2)CC1 | 0.06 | 0.12
Cc1ccc(S(=O)(=O)N2CCN(C(=O)CSc3ccc(Cl)cc3)CC2)cc1 | 0.47 | -0.06
